Rango release inh: qHTS Assay for Inhibitors of RanGTP induced Rango (Ran-regulated importin-beta cargo) - Importin beta complex dissociation | Snurportin-1 (Homo sapiens) + GTP-binding nuclear protein Ran (Homo sapiens) + Importin … | Biochemical FRET Rango-importin beta, RanGTP-induced dissociation | Potency, µM (doses to about 46.1 µM), inactives show at the top dose activity change, negative = inhibition | 340,000 compounds, 0.071% hits; active means falling FRET ratio curve, often poorly fitted, with flat reads before Ran was added; inconclusive means other falling curves, or compound fluorescence or quenching; inactive means flat or rising ratio curve;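 further: potency means the concentration at half of the fitted maximal effect; % of control where 0% means no effect; nearly all actives have a fitted effect of over 45% in size; -100% = wells without RanGTP and RCC1; the record marks most hits as doubtful in a second field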
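Recombinant Rango FRET biosensor (EYFP–snurportin 1 IBB–cerulean CFP10) at 0.1 uM premixed with 0.25 uM importin beta in PBS, 1 mM DTT, 0.02% Tween-20, 0.1% BSA. Compound added 5 min; RanGTP-RCC1 (0.6 uM Ran, 2 mM GTP, 0.2 uM RCC1) then triggers release, read at 45 min.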
GLA inh pH 4.5: qHTS Assay for Inhibitors of Human alpha-Galactosidase at pH 4.5. Alpha-galactosidase A (Homo sapiens), P06280. AID 1467, 2008. 230,000 tested, under 10 active. activity change, negative = inhibition, % at 105 µM. purified enzyme, 4-MU-alpha-Gal fluorescence, pH 4.5; inconclusive = small, poorly fitted or top-dose-only inhibition, or a rising curve; inactive = flat fitted curve, though single readings scatter; no compound was filed as active;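 further: 0% = full activity with enzyme and -100% = basal without enzyme; dose as in the result columns while the protocol names 77 µM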
miR-21 reporter: qHTS Assay for Modulators of miRNAs and/orActivators of miR-21. HeLa miR-21 FLuc reporter, luciferase, 48 h. Potency, µM (highest dose often 38.3 µM), without a hit: at the top dose reporter change, positive = more light. 340,000 tested, under 10 active. AID 2288, 2010; active = well fitted rising curve with a large enough effect; inconclusive = small, poorly fitted or top-dose-only effect; inactive = no such curve, though single readings can be large or run the other way;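 further: % of control where 0% means no effect; miR-21 action dims this reporter so a rising signal means less miR-21 action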
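HeLa miR-21-FLuc reporter line, endogenous miR-21; 2000 cells/well in DMEM/10% FBS; compound titration up to ~40uM final, 48 h, 37 degree Celsius; luciferase detection reagent, 15 min lysis, CCD luminescence.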
Rango complex inh: qHTS Assay for Inhibitors of Rango (Ran-regulated importin-beta cargo) - Importin beta complex formation; 340,000 compounds, 0.031% hits; AID 540263, 2011; Potency, µM (top dose mostly 92.2 µM), for the others: at the top dose inhibition of complex formation; Rango CFP/YFP FRET sensor + importin beta, 45 min; active = rising FRET ratio curve, often small or poorly fitted; inconclusive = mostly compound fluorescence or quenching in the first reads; inactive = flat curves in all reads;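 further: potency means the concentration at half of the fitted maximal effect; 0% = DMSO wells and 100% = buffer wells lacking importin beta; nearly all actives have a fitted effect of over 15% in size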
Target sequence (Q14974 whole entry, looked up): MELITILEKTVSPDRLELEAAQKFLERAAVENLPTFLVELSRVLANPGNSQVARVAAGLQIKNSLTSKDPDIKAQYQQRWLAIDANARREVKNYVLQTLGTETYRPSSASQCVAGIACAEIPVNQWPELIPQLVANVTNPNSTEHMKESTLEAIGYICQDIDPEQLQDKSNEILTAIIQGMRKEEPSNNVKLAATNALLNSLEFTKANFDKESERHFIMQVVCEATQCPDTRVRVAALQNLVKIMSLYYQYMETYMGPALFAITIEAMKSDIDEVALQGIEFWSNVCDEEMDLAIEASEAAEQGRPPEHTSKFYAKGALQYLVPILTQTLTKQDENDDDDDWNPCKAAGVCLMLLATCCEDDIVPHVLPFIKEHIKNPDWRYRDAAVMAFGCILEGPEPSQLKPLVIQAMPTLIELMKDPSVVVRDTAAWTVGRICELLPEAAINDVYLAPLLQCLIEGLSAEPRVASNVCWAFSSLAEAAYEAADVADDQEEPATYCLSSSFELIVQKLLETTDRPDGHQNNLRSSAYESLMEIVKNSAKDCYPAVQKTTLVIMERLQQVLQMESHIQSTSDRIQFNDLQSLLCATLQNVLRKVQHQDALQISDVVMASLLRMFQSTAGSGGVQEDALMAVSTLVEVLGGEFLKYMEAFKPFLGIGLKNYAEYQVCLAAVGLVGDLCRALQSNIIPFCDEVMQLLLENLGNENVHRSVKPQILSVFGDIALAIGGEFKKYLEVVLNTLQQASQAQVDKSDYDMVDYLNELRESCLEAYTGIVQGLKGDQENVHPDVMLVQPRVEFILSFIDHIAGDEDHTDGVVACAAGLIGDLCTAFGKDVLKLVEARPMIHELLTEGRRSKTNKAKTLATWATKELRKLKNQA
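FRET biosensor (snurportin 1 IBB flanked by EYFP and cerulean), 50 nM, with compound 5 min, then 0.125 microM importin beta in PBS, 1 mM DTT, 0.02% Tween-20, 0.1% BSA. CFP/YFP ratio read after 45 min at room temperature; pre-read flags interference.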
An asterisk follows results filed as active; ? = inconclusive; . = not tested or not shown. These rows are one share of the data; the hit share may differ from the screen's.

Rango release inh | GLA inh pH 4.5 | SMILES | miR-21 reporter | Rango complex inh
-9% | -3 | COc1ccc(N2CCN(C(CNC(=O)C(=O)NCc3cccs3)c3ccco3)CC2)cc1 (centres undefined) | 5% | -0.5%
. | ? | COC(=O)c1ccc(C(=O)OC)c(N)c1 | -18% | .
0% | . | COc1ccc(C(CNC(=O)c2ccc(NS(=O)(=O)c3ccc4c(c3)OCCO4)cc2)N(C)C)cc1 (centres undefined) | . | -1.9%
4% | . | CC(C)CNC(=O)c1cc(S(=O)(=O)N2CCOCC2)ccc1N1CCCC1 | -2% | 1.6%
-13% | 9 | CCCCCCCn1ccc(O)c(CC(=O)OC)c1=O | -9% | -0.1%
0% | -11 | O=C(c1cccs1)N(Cc1cc2ccccc2[nH]c1=O)c1ccccc1 | 6% | 0.3%
-6% | 3 | CCOc1ccc(NC(=S)NNC(=O)c2ccc(Br)cc2)cc1 | -10% | 3.0%
4% | . | CCOCCCNC(=O)C1CCN(Cc2cccc(OCc3ccccc3)c2)CC1 | 5% | -1.9%
8% | . | CC(Cc1ccco1)NC(=O)c1cccc(S(=O)(=O)N(C)C)c1 (centres undefined) | -44% | -4.5%
3% | -2 | c1cc2nnnn2nc1N1CCCCCC1 | -4% | -0.9%
-4% | 12 | O=C(CSC1=NCCS1)NC(NC(=O)CSC1=NCCS1)c1ccccc1 | 5% | 5.2%
4% | 7 | COc1ccc(CCNC(=O)CSc2nc3c(c(=O)n(C)c(=O)n3C)n2C(C)C)cc1OC | -8% | 1.5%
-3% | . | COc1cc(OC)cc(C(=O)NC2CCCCCCC2)c1 | -18% | ?
? | 0 | O=C(/C=C/c1ccc2c(c1)OCO2)c1ccccn1 | -34% | ?
0% | -1 | Cc1ccc(-c2nc(-c3ccccn3)no2)cc1Cl | ? | -0.8%
? | 1 | CCn1c(=O)c(C(=O)Nc2nc3ccccc3[nH]2)c(O)c2ccccc21 | 0% | ?
-6% | 2 | Cc1n[nH]c(=O)nc1N1CCc2ccccc2C1 | -3% | -2.2%
1% | . | O=C(Cn1c(=O)oc2ccccc21)Nc1ccc(F)cc1 | -5% | 3.3%
-12% | . | Cc1ccccc1NC(=O)Cc1nc(COC(=O)CC(C)c2ccccc2)cs1 (centres undefined) | . | -4.7%
-19% | 2 | CN(C)CC(=O)c1ccc(-c2ccccc2)cc1 | -1% | 3.3%
-12% | -15 | N#Cc1ccc(C(=O)N/N=C/c2cn(CC(=O)O)c3ccccc23)c(F)c1 | 8% | -1.5%
-11% | 5 | COc1ccccc1S(=O)Cc1ccc(C(=O)NCc2ccccc2Cl)o1 (centres undefined) | 0% | -5.9%
-6% | -18 | COc1ccc(N(CC(=O)Nc2c(C)cccc2C)S(=O)(=O)c2ccccc2[N+](=O)[O-])c(OC)c1 | 1% | 1.9%
3% | . | CCn1cc(C(=O)N[C@@H](CCSC)C(=O)NCCCn2ccnc2)c(=O)c2cc3c(cc21)OCO3 | -1% | -1.1%
1% | . | COc1ccc(-n2nc(C(=O)NCC(=O)N3CCN(c4ccccc4F)CC3)c3ccccc3c2=O)cc1OC | -13% | -2.2%
-10% | -6 | CS(=O)(=O)Nc1ccc(C2=NN(S(C)(=O)=O)C(c3cccs3)C2)cc1 (centres undefined) | -35% | -7.2%
43% | . | O=C(Cc1c(F)cccc1Cl)N1CCN(S(=O)(=O)c2cccs2)CC1 | . | -6.6%
? | 15 | CN(C(=O)COC(=O)c1ccc([N+](=O)[O-])cc1N)c1ccccc1 | -11% | ?
-2% | . | CC(C)CC(=O)c1c[nH]c(C(=O)NCc2ccccc2)c1 | -3% | -1.1%
? | -7 | C=CCN1C(=O)/C(=C/c2ccc(O)c(OC)c2)S/C1=N/c1nccs1 | -6% | ?
-2% | . | COc1ccc(CC(=O)N/N=C(/C)CC(=O)N(C)c2ccccc2)cc1 | -8% | -4.5%
-7% | 10 | Cc1occc1-c1nnc(SCC(=O)Nc2ccccc2)n1C | 1% | 0.2%
17% | 4 | Cc1cc2nc(-c3cccc(NC(=O)c4ccc(Br)o4)c3)oc2cc1C | -14% | -2.9%
6% | . | COc1cc(OC)cc(C(=O)Nc2cccc3cccnc23)c1 | -1% | -3.0%
6% | -29 | COC(=O)c1sc(N2C(=O)c3oc4ccccc4c(=O)c3C2c2cccc(O)c2)nc1C (centres undefined) | -4% | ?
1% | -1 | CC1CCCCN1S(=O)(=O)c1ccc2c(c1)oc(=O)n2CC(=O)O (centres undefined) | -1% | -3.7%
-13% | -9 | COc1ccc(C(=S)NC2CCCCC2)cc1 | -45% | 2.2%
9% | 3 | COc1ccc(CN(C)CC(=O)NC2CCCc3ccccc32)cc1OC (centres undefined) | -6% | 0.8%
4% | -7 | C/C(CC(=O)Nc1ccccn1)=N\NC(=O)C(=O)Nc1cccc(Cl)c1C | -19% | -1.1%
-4% | -6 | CC(C)CSc1nsc(N)n1 | -43% | 0.5%
9% | 0 | Cn1c(=O)c2cc(S(=O)(=O)NCCC(=O)Nc3ccccc3F)ccc2n(C)c1=O | -4% | -1.7%
7% | 0 | Cc1cc(-n2cc(Br)c(=O)[nH]c2=O)nc(-c2ccccc2)n1 | -4% | 13%
-15% | . | Nc1cc2cccnc2cc1Cl | . | 3.8%
-7% | . | CCCN1CCN(S(=O)(=O)c2ccc3c(c2)CC(C)N3C(=O)C2CC2)CC1 (centres undefined) | 2% | 0.7%
-2% | . | O=C(OCc1ccccc1)N1CCC2CC1c1cc(-c3ccccc3)ccc12 (centres undefined) | . | -5.7%
5% | 3 | Cc1cccc(C)c1OCC(O)Cn1nnc2ccccc21 (centres undefined) | -27% | 0.6%
? | ? | O=C1OCCN1/N=C/c1ccc([N+](=O)[O-])o1 | 8% | ?
-6% | 9 | COC(=O)[C@H](C)NC(=O)/C=C/c1ccc(OC)cc1 | -5% | -3.9%
7% | -15 | Cc1cc([N+](=O)[O-])nn1Cc1ccc(C(=O)N/N=C/c2ccc(O)cc2O)cc1 | 27% | 7.3%
13% | -1 | O=C(O)CCNc1nc(C(F)(F)F)nc2ccccc12 | 0% | 0.0%
3% | -3 | O=C(NCc1ccco1)C1CC(=O)N(c2ccc(O)cc2)C1 (centres undefined) | -1% | 4.4%
-8% | . | COc1cccc(CNc2ccc3[nH]c(=O)[nH]c3c2)c1OCc1ccccc1 | 17% | -2.4%
7% | . | O=C(NCc1ccccc1)N1CCN(c2ccccc2)CC1 | -7% | 3.1%
0% | -7 | COCCn1c(SCC#N)nnc1-c1ccc2c(c1)OCO2 | -6% | -0.8%
20% | -4 | CCC(C)c1ccc(O)c(NC(=O)c2ncn[nH]2)c1 (centres undefined) | -17% | -1.6%
5% | -22 | O=C(c1cc([N+](=O)[O-])ccc1N1CCCC1)N1CCCCC1 | 0% | -2.7%
13% | 1 | O=C(CSc1nnc(-c2cccnc2)n1-c1ccccc1)Nc1ccccn1 | 3% | 3.2%
2% | . | O=C(O[C@H]1[C@H](Cc2ccccc2)NS(=O)(=O)[C@H]2C[C@@H]3C=C[C@]12O3)c1ccc([N+](=O)[O-])cc1 | . | -1.1%
11% | . | CCn1cc(C(=O)NCCc2ccccc2C)c(=O)c2ccc(C)nc21 | -2% | -0.4%
4% | -10 | O=C1CC(N(CCc2ccccc2)C(=S)Nc2cc(Cl)ccc2Cl)C(=O)N1c1c(Cl)cccc1Cl (centres undefined) | 15% | -1.7%

(more compounds)
Rango release inh | GLA inh pH 4.5 | SMILES | miR-21 reporter | Rango complex inh
6% | 2 | O=C(Nc1ccc(CN2CCCCC2)cc1)c1sc2ccccc2c1Cl | -24% | 2.0%
8% | . | O=C(NCCCn1ccnc1)c1ccc(NS(=O)(=O)c2ccc(Cl)c(Cl)c2)cc1 | . | -1.0%
11% | -3 | Cc1cc(C)n2nc(-c3ccccc3)cc2n1 | -49% | 0.5%
7% | . | Cc1cc(=O)[nH]c2ccc(Cc3ccccc3)cc12 | . | 7.3%
2% | -14 | O=c1c2ccccc2nnn1CSc1nnc(-c2ccc3c(c2)OCO3)o1 | -17% | 4.6%
? | -5 | Nc1c(C(=O)N/N=C/c2ccc(F)cc2)oc2nc(-c3ccccc3)cc(-c3ccco3)c12 | 8% | ?
1% | -16 | O=c1[nH]c(=S)c2c(n1-c1ccccc1)CCC2 | -6% | -1.3%
-2% | -4 | COc1ccc(C(=O)N2CCN(C(=O)c3ccco3)CC2)cc1OC | -5% | 0.8%
-4% | -4 | CCCOCCc1nnc(N)s1 | 0% | -7.4%
-6% | 3 | COc1ccc(C(=O)NCc2ccccn2)cc1[N+](=O)[O-] | -2% | -1.9%
0% | . | Cc1ccc(NC2CCCN(C(=O)c3snnc3C)C2)cc1C (centres undefined) | -1% | 0.9%
? | . | CCCn1c(SCC(=O)c2cc(C)n(-c3cc(C)on3)c2C)n[nH]c1=O | . | 0.0%
-12% | -11 | Cc1onc(-c2c(F)cccc2Cl)c1C(=O)NCCN1CCNC1=O | 0% | -0.1%
0% | -2 | COc1ccc(OCC(=O)N2CCN(C(=O)c3cccc4ccccc34)CC2)cc1 | 2% | -0.4%
5% | . | COc1ccc(/C=C/C(=O)OCC(=O)c2ccccc2F)cc1 | . | 2.4%
-13% | -4 | O=C(Nc1ccccc1N1CCN(C(=O)c2ccccc2)CC1)c1ccccc1Cl | 5% | -0.6%
7% | . | CC(Oc1ccc(F)cc1)C(=O)Nc1cc(S(=O)(=O)N2CCOCC2)ccc1N1CCN(C)CC1 (centres undefined) | . | -1.3%
0% | 2 | Cc1cc(C)n(CCNC(=O)c2cc(COc3ccc(F)cc3Cl)on2)n1 | -3% | -3.7%
3% | 3 | Cn1cc(C(=O)NC2C3CC4CC(C3)CC2C4)cn1 (centres undefined) | -32% | 7.0%
4% | 5 | CCN(CC)CCCNC(=O)/C(=C\c1cccn1C)NC(=O)c1cccs1 | -8% | -0.1%
14% | 4 | CCC(C)Oc1ccc(/C=C/c2[nH]c(=O)[nH]c(=O)c2[N+](=O)[O-])cc1OC (centres undefined) | -5% | -2.4%
-15% | . | CCOC(=O)C1CCN(C/C=C/c2ccccc2)CC1 | 0% | -0.3%
-6% | . | CCn1c(SCC(=O)N2c3ccccc3CCc3ccccc32)nc2c1c(=O)n(C)c(=O)n2C | . | 0.9%
-8% | 1 | O=C(COC(=O)c1ccncc1)Nc1ccccc1 | -27% | -1.8%
0% | 6 | O=C(CSC(=S)N1CCCCC1)c1ccccc1 | 4% | -2.4%
1% | 4 | CC(C)NCC(O)COc1ccc(Br)cc1 (centres undefined) | -5% | 0.6%
7% | -9 | CCNC(=O)C(=O)Nc1ccc([N+](=O)[O-])cc1 | -5% | 0.8%
16% | 1 | COc1ccccc1N1C(=O)c2ccc(C(=O)Nc3nccs3)cc2C1=O | -2% | 0.9%
0% | . | COc1ccc(-c2cc(C(=O)N/N=C/c3cccnc3)c3cc(C)cc(C)c3n2)cc1 | -1% | -3.5%
-1% | -5 | CCOc1cc(S(=O)(=O)N2CCOCC2)ccc1F | -2% | -0.2%
10% | . | O=C1NCCNC1c1ccccc1 (centres undefined) | . | 1.2%
21% | . | CC(=O)Nc1ccc(C(=O)NCCCSc2ccccc2)cc1 | . | 3.0%
1% | . | CCOc1ccccc1NC(=O)CCCc1ccc(OC)c(C)c1 | 10% | -1.3%
1% | . | COc1ccc(S(=O)(=O)NCC(=O)NCCc2ccc(OC)c(OC)c2)cc1 | . | -0.5%
-7% | -3 | CC1CCCCN1C(=O)COc1ccc(NC(=O)c2ccco2)cc1 (centres undefined) | -17% | ?
-3% | 2 | CCCCOc1ccc(-c2nc(=S)[nH][nH]2)cc1 | -18% | 2.7%

Full records from above.
Record of `CC1CCCCN1C(=O)COc1ccc(NC(=O)c2ccco2)cc1` (centres undefined) = Rango release inh: -7%; GLA inh pH 4.5: -3; miR-21 reporter: -17%; Rango complex inh: ?
Record of `CCCCOc1ccc(-c2nc(=S)[nH][nH]2)cc1` = Rango release inh: -3%; GLA inh pH 4.5: 2; miR-21 reporter: -18%; Rango complex inh: 2.7%
